Mtb growth – Mycobacterium tuberculosis H37Rv growth inhibition, putative kinase inhibitor library, confirmatory dose response (AID 2842) | one-dose inhibition, % at 10 µg/mL; IC90 in µg/mL for titrated hits | actives 5.2% (n = 24,000) | M. tuberculosis H37Rv growth inhibition; higher % means a stronger effect; some inactives read as strong as hits;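 active = confirmed in a dose series; about a fifth of its hits are not listed in these tables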;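 also: bacteria incubated one week before Alamar blue readout; 0% = bacteria only wells and 100% = bacteria with high antibiotic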
* = called active by the depositor. Not all compounds are listed; rates above refer to the full screens.

compound,Mtb growth
CC(=O)c1ccc(NC(=O)c2c[nH]c(=O)n(-c3ccc(F)c(Cl)c3)c2=O)cc1,-1%
O=C(CSc1ccc2nnc(-c3ccc(F)cc3)n2n1)Nc1ccc2c(c1)OCCO2,1%
Cc1cccc(Cn2c(SCC(C)O)nc3c2c(=O)n(C)c(=O)n3C)c1 (configuration not stated),0%
O=C(CC(NCc1cccnc1)C(=O)O)Nc1cccc(Cl)c1 (configuration not stated),-24%
CCOC(=O)Nc1c(C(=O)Nc2ccccc2OCC)oc2ccccc12,8%
COc1ccc(C(=O)NCc2nnc(SC)n2C2CCCCC2)cc1,4%
Cc1ccc2nc(Nc3ccc(Cl)cc3)c(C=Nc3ccc(Cl)cc3)c(=O)n2c1,-9%
COc1cccc(C(c2sc3ncnn3c2O)N2CCC(C(N)=O)CC2)c1 (configuration not stated),-4%
Cc1nnc(SCCn2c(N3CCc4ccccc4C3)nc3c2c(=O)[nH]c(=O)n3C)s1,-22%
O=C(c1cccs1)N1CCN=C1SCc1cccc(Cl)c1,-3%
Cc1cc2c(=O)n(Cc3ccco3)c(SCc3cc(=O)[nH][nH]3)nc2s1,-13%
O=C(O)CCCN1C(=O)/C(=C/c2ccc(-c3ccccc3F)o2)SC1=S,-10%

Following part:
compound,Mtb growth
O=C(CC12CC3CC(CC(C3)C1)C2)Nc1nnc(-c2ccc(Cl)cc2)s1,2%
CC(C)CCOc1cccc2c1CCNC2=O,-9%
C=C(C)Cn1c(N/N=C/c2cccnc2)nc2c1c(=O)n(C)c(=O)n2C,7%
Cn1c(=O)[nH]c(=O)c2c1nc(N(CCO)Cc1ccccc1)n2CCCc1ccccc1,-6%
Nc1nc(SCC(=O)Nc2cccc(F)c2)[nH]c(=O)c1NC(=O)c1ccc(F)cc1,-7%
COc1ccc(C(=O)NCCc2cc3ccc(C)c(C)c3[nH]c2=O)cc1OC,-6%
CC(C)NC(=O)C(=O)Nc1cc2c3c(c1)C(C)C(=O)N3CCC2 (configuration not stated),-6%
CCOc1ccc(NC(=O)c2oc3ccccc3c2NC(=O)c2ccccc2C(F)(F)F)cc1,9%
COc1ccc2cc(CCNC(=O)c3ccccc3OC)c(=O)[nH]c2c1,6%
COc1ccc(CC(=O)Nc2c3c(nn2C(C)(C)C)CSC3)cc1OC,-16%
COc1ccc(NC(=O)CN2N=NC3C(=O)N(c4ccc(F)c(Cl)c4)C(=O)C32)cc1 (configuration not stated),-7%
COc1ccccc1NCC(=O)Nc1ncc(Cc2cc(Cl)cc(Cl)c2)s1,2%

Other structures follow:
compound,Mtb growth
CC(=O)Nc1ccc2nc(NC(=O)c3ccc4ccccc4c3)sc2c1,7%
CCOc1ccc(C(=O)c2cn(Cc3ccccc3OC)c3cc4c(cc3c2=O)OCCO4)cc1,54%
Cc1oc2c(CN3CCN(C)CC3)c(O)ccc2c(=O)c1-c1nc2ccccc2s1,-15%
O=C(COc1ccc(Cl)cc1Cl)Nc1nc(-c2cccnc2)cs1,2%
O=C(CC1Sc2ccc(C(F)(F)F)cc2NC1=O)Nc1ccccc1 (configuration not stated),-4%
Cn1c(=O)c2c(nc(N3CCOCC3)n2CCSc2ncccn2)n(C)c1=O,-4%
O=C(/C=C\c1ccc([N+](=O)[O-])cc1)NC1CC(=O)N(c2ccc3c(c2)OCCO3)C1 (configuration not stated),-8%
N#Cc1ccc(-c2csc(NC(=O)c3ccccc3Cl)n2)cc1,-3%
COc1ccccc1NC(=O)c1oc2ccccc2c1NC(=O)c1c(F)cccc1Cl,5%
COc1cccc2cc(C(=O)C3=C(O)C(=O)N(c4cc(C)on4)C3c3cccs3)oc12 (configuration not stated),-4%
O=C1CN(C(=O)c2cccc3ccccc23)C(c2ccc(F)cc2)c2cc(F)ccc2N1 (configuration not stated),82%
Cc1cccc(NC(=O)CSc2ncc(S(=O)(=O)c3ccc(C)c(C)c3)c(N)n2)c1,42%

Next records follow.
compound,Mtb growth
COc1cc2ccccc2cc1C(=O)Nc1nnc(-c2cc(C)ccc2C)o1,1.2µg/mL*
Cc1n[nH]c2nc3ccccc3c(=O)n2c1=O,-13%
O=C(Nc1nnc(-c2ccccc2Cl)s1)C1CC1,4%
COCC(=O)Nc1c(C(=O)Nc2ccc([N+](=O)[O-])cc2)oc2ccccc12,0%
N#C/C(=C\c1cccnc1)S(=O)(=O)c1ccc(Cl)cc1,3%
Cc1cc(SCC(=O)Nc2ccccc2)n2c(nc3ccccc32)c1C#N,-4%
O=C1CCc2cc(S(=O)(=O)Nc3cccc(C(F)(F)F)c3)cc3c2N1CC3,-6%
O=C(c1ccccc1)c1ccc2[nH]c(=O)[nH]c2c1,-6%
CC(C)CCn1c(SCCc2ccccc2)nc2c1c(=O)n(C)c(=O)n2C,8%
COc1ccc(-c2nnc3c4ccccc4n(Cc4cccc(F)c4)cc2-3)cc1,18%
Cc1cc(Nc2ccncc2)n2ncc(-c3ccccc3)c2n1,13%
Cn1c(=O)n(CC(=O)O)c(=O)c2c1nc1n2CCCN1c1cccc(Cl)c1,-13%

As a short view, part of the list above:
compound,Mtb growth
COc1ccc2cc(CCNC(=O)c3ccccc3OC)c(=O)[nH]c2c1,6%
COc1ccc(CC(=O)Nc2c3c(nn2C(C)(C)C)CSC3)cc1OC,-16%
COc1ccc(NC(=O)CN2N=NC3C(=O)N(c4ccc(F)c(Cl)c4)C(=O)C32)cc1 (configuration not stated),-7%

Next part.
compound,Mtb growth
CN(C(=O)c1ccc(-c2ccccc2)cc1)c1nnc(C23CC4CC(CC(C4)C2)C3)s1,-3%
CCCCCCn1c(SCCOC)nc2c1c(=O)[nH]c(=O)n2C,-4%
Cc1ccc(C)c(-n2c(C)cn3c4c(=O)n(CC(N)=O)c(=O)n(C)c4nc23)c1,-10%
COc1cccc(NC(=O)CSc2ccc3nnc(-c4ccncc4)n3n2)c1,-12%
CCOc1ccccc1NC(=O)c1oc2ccccc2c1NC(=O)c1ccccc1F,17%
COCCOC(=O)c1c(C)oc2ccc(OCC(=O)c3ccc(OC)cc3)cc12,5%
Cc1c(Cc2ccc3c(c2)OCO3)sc(NC(=O)c2cccc3ccccc23)c1C#N,-1%
Cc1ccc(/C=C/C(=O)O)cc1S(=O)(=O)NCc1cccnc1,-13%
CCCCOc1ccc(C(=O)NCc2nnc(SCC(=O)Nc3nnc(C)s3)n2-c2cccc(C(F)(F)F)c2)cc1,3%
CCOc1ccc(C)cc1S(=O)(=O)Nc1ccc2c(c1)C(=O)Nc1ccccc1O2,-10%
O=C(CSc1ccc(-c2ccc3c(c2)OCO3)nn1)Nc1ccc2c(c1)OCO2,4%
O=C(CN1CCOCC1)Nc1ncc(Cc2ccc(F)cc2)s1,0%

Among those listed so far, 2 have a nitro group on carbon:
compound,Mtb growth
O=C(/C=C\c1ccc([N+](=O)[O-])cc1)NC1CC(=O)N(c2ccc3c(c2)OCCO3)C1 (configuration not stated),-8%
COCC(=O)Nc1c(C(=O)Nc2ccc([N+](=O)[O-])cc2)oc2ccccc12,0%

(next part)
compound,Mtb growth
CCc1nc(SCC(=O)c2ccc(Cl)cc2)n[nH]1,-2%
COc1ccc2c(c1)c1nnc(-c3ccc(F)cc3)c-1cn2Cc1ccccc1F,29%
Cc1cccc(-c2nc(C(N)=O)c3[nH]c(=O)n(-c4ccc(C(C)(C)C)cc4)c3n2)c1,-1%
CC(C)Cn1c(N2CCN(CC(N)=O)CC2)nc2c1c(=O)[nH]c(=O)n2C,-5%
CC(=O)Nc1ccc(N2C(=O)/C(=C3/C(=O)N(C(C)=O)c4ccccc43)SC2=S)cc1,2%
O=C1NC(=Nc2cccc(C(F)(F)F)c2)S/C1=C/c1cccs1,12%
Cc1nc2sc(C(c3ccco3)N3CCCC(C)C3)c(O)n2n1 (configuration not stated),4%
CC1(C)CC(=O)c2cc3c(N)c(C(=O)N(c4ccccc4)c4ccccc4)sc3nc2C1,1%
Cc1ccc(-n2c(=O)cc(N3CC(C)CC(C)C3)[nH]c2=O)cc1 (configuration not stated),-4%
CC1C(=O)N2CCCc3cc(NC(=O)c4ccccc4Br)cc1c32 (configuration not stated),-6%
CC(C)Oc1ccc(Nc2nncc(=O)[nH]2)cc1,0%
CCN(CC)CCNc1nc2c(c(=O)[nH]c(=O)n2C)n1CCCOc1ccccc1,-6%

Next part.
compound,Mtb growth
O=C(NCCc1ccccc1)NC1CC(=O)N(c2ccc(Cl)cc2)C1 (configuration not stated),3%
O=C(NCC1COC2(CCCCC2)O1)Nc1ccc(Cl)cc1 (configuration not stated),21%
CCN(CC)S(=O)(=O)c1ccc(C(=O)NCCc2cc3ccc(C)c(C)c3[nH]c2=O)cc1,-5%
CCOC(=O)c1nn(-c2ccc(C)cc2)c(=O)c2c(NC(=O)C3CCCC3)scc12,6%
CC(=O)Oc1ccc2c3c(c(=O)oc2c1OC(C)=O)CCC3,-10%
CSc1nnc(NC(=O)CC(C)C)s1,-2%
O=C(NC(=O)c1ccc(F)cc1)Nc1ccncc1,-3%
COc1ccc(Cn2cc3c(-c4ccc(C)cc4)nnc-3c3cc4c(cc32)OCCO4)cc1,-7%
COc1ccccc1-c1nnc(NC(=O)Cc2ccc(F)cc2)s1,-1%
CCOC(=O)N1CCN(C(=O)CSc2nc(N)c(NC(=O)c3ccc(OC)c(OC)c3)c(=O)[nH]2)CC1,-5%
Nc1ncnc(N2CC(=O)N(CCc3ccccc3)C(=O)C2)c1[N+](=O)[O-],4%
Cc1ccc2sc(N(CCCn3ccnc3)C(=O)COc3ccccc3)nc2c1C,5.4µg/mL*

Filtered by structure: those above with a tert-butyl group
compound,Mtb growth
COc1ccc(CC(=O)Nc2c3c(nn2C(C)(C)C)CSC3)cc1OC,-16%
Cc1cccc(-c2nc(C(N)=O)c3[nH]c(=O)n(-c4ccc(C(C)(C)C)cc4)c3n2)c1,-1%

The listing continues.
compound,Mtb growth
COc1cc(OC)cc(C(=O)Nc2c(C(=O)Nc3ccccc3OC)oc3ccccc23)c1,9%
CC1CCc2nc(Nc3nc4c(F)cccc4s3)sc2C1 (configuration not stated),32%
CCSc1nnc(NC(=O)CCn2c(=O)oc3ccccc32)s1,-2%
O=C(NCCc1nnc2ccc(SCc3c(F)cccc3Cl)nn12)c1ccc(F)cc1,-3%
Cc1ccc2cccc(S(=O)(=O)Nc3ccc(C(=O)O)cc3)c2n1,-14%
COc1ccc(CC(=O)Nc2c(C(=O)Nc3ccccc3)oc3ccccc23)cc1,-4%
N#C/C(=C(/O)c1ccc(-c2ccc([N+](=O)[O-])cc2Cl)o1)c1nc2ccccc2c(=O)[nH]1,2%
C=C(C)Cn1c(N2CCN(CC(N)=O)CC2)nc2c1c(=O)[nH]c(=O)n2C,-13%
Fc1cccc2sc(N3CCc4ccccc4C3)nc12,53%
Cc1cc(OCC(=O)Nc2ccc3c(c2)OCO3)cc(C)c1Cl,-3%
O=C(CSc1ccc2nnc(-c3ccncc3)n2n1)Nc1ccccc1F,-7%
O=C(Nc1nnc(-c2ccc(Br)cc2)s1)c1c(F)cccc1Cl,-1%

Next section.
compound,Mtb growth
Cc1ccc(-n2c(=O)[nH]c3c(C(N)=O)nc(-c4ccccc4[N+](=O)[O-])nc32)cc1C,-7%
Cc1sc(N)c(C(N)=O)c1C,-3%
Cc1ccc(-c2nnc(NC(=O)CCc3ccccc3)o2)c(C)c1,-46%
O=C1CCc2cc(S(=O)(=O)Nc3ccccc3)cc3c2N1CC3,0%
CCCC(=O)Nc1c(C(=O)Nc2ccc(F)c(Cl)c2)oc2ccccc12,6%
Cc1ccc(Nc2nnc(-c3cc4cc(Br)ccc4oc3=O)s2)cc1,-1%
O=C1C2N=NN(Cc3ccccc3F)C2C(=O)N1c1ccccc1 (configuration not stated),1%
O=C(Nc1nnc(-c2ccccc2Cl)s1)c1ccccc1,4%
O=C1N/C(=N\N=C\c2ccccc2O)SC1Cc1ccc(F)cc1 (configuration not stated),<0.2µg/mL*
COc1ccc(Nc2ncnc(N)c2[N+](=O)[O-])cc1OC,10%
Cc1cccn2c(=O)c3cc(C(=O)NCc4cccnc4)c(=N)n(Cc4cccnc4)c3nc12,-4%
COCCn1c(SCC(=O)Nc2ccc([N+](=O)[O-])cc2)nc2c(c1=O)SC(C)C2 (configuration not stated),13%

Next part
compound,Mtb growth
Fc1ccc2nc(Nc3nc(-c4ccc(Cl)s4)cs3)sc2c1,7.9µg/mL*
CC(C)c1ccc(/C=C/c2nc3ccccc3[nH]c2=O)cc1,-3%
Cc1ccccc1-c1nnc(NC(=O)c2cc3ccccc3oc2=O)s1,64%
O=C(NCc1ccco1)c1cc(=O)[nH]c2ccc(S(=O)(=O)N3CCCCCC3)cc12,-10%
COc1ccc2cc(CCNC(=O)c3cc(Cl)ccc3OC)c(=O)[nH]c2c1,6%
Cc1cn2c3c(=O)[nH]c(=O)n(C)c3nc2n1CCCN1CCC(C(N)=O)CC1,2%
CC(=O)c1sc(NC(=O)CN2C(=O)CCC2=O)nc1C,7%
CCOc1ccc(-c2nnc3c4cc5c(cc4n(Cc4ccccc4OC)cc2-3)OCCO5)cc1,22%
O=C(Cn1cnc2c(cnn2-c2ccc(Cl)cc2)c1=O)N1CCc2ccccc21,0%
CC(=O)Cc1nsc(NC(=O)c2ccc(Br)o2)n1,-2%
CC(=O)N1CCc2c(sc(NC(=O)CCOc3ccccc3)c2C#N)C1,-2%
NS(=O)(=O)c1ccc(NC2=C(Cl)C(=O)N(Cc3ccc(Cl)cc3)C2=O)cc1,71%
CCOC(=O)c1nn(-c2ccc(F)cc2)c(=O)c2c(NC(=O)CSCc3ccccc3)scc12,7%
